HIV Env fusion – HIV envelope-mediated fusion inhibition. HeLa-JRFL Env/CEM21 cell fusion, luciferase. AID 651610. inhibition, % at 12.3 µM. 1.1% of 360,000 active;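 active means mean replicate inhibition score of at least 50 and every replicate individually at or above 50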;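 further: 0% = plate neutral controls and 100% = maraviroc near 300 nM; one replicate is shown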
UUG fidelity – alters start codon recognition fidelity in yeast; 0.13% of 350,000 active; S. cerevisiae UUG-firefly luciferase reporter, luminescence/redox ratio; activity score, % at 18.7 µM;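 active means replicate mean at a twofold rise or more, about +100% in these data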;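 further: firefly luciferase made from a UUG start codon reports start codon fidelity; reporter light over untreated wells divided by growth signal over untreated wells; some hits fall short of that in this replicate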
* hit, by the source's call; [ ] = another dose, or the depositor's remark.

SMILES | HIV Env fusion | UUG fidelity
COc1ccc(NC(=O)Nc2ccc3c(c2)CC(=O)N([C@H](C)CO)C[C@@H](C)[C@H](CN(C)Cc2ccc(-c4ccccc4)cc2)O3)cc1 | 12.5[16.7 µM] | -4.9
CCCC#Cc1cnc2c(c1)C(=O)N([C@@H](C)CO)C[C@H](C)[C@@H](CN(C)Cc1ccncc1)O2 | 13.2[16.7 µM] | -5.4
Cc1ccc(S(=O)(=O)N[C@@H]2CC[C@@H](CCNC(=O)C3CCOCC3)O[C@H]2CO)cc1 | 10.0[16.7 µM] | -3.5
O=C(C[C@H]1CC[C@@H](NC(=O)Nc2cc(F)ccc2F)[C@H](CO)O1)NCc1ccccn1 | -3.8[16.7 µM] | -24.8
Cc1noc(C)c1NC(=O)Nc1cccc2c1O[C@@H](CN(C)Cc1ccc(C(F)(F)F)cc1)[C@@H](C)CN([C@H](C)CO)C2=O | -1.9[16.7 µM] | -9.9
O=C(Cc1ccncc1)NCC[C@@H]1CC[C@H](NC(=O)C2CCCC2)[C@H](CO)O1 | -0.2[16.7 µM] | 3.7
C[C@H]1CN([C@@H](C)CO)S(=O)(=O)c2ccc(C3=CCCC3)cc2O[C@@H]1CN(C)S(=O)(=O)c1cn(C)cn1 | 4.3[16.7 µM] | -6.3
COc1ccc(S(=O)(=O)Nc2ccc3c(c2)C(=O)N([C@@H](C)CO)C[C@@H](C)[C@@H](CN(C)C(=O)Nc2c(C)noc2C)O3)cc1 | 8.2[16.7 µM] | -8.1
C[C@H]1CN([C@@H](C)CO)C(=O)c2cc(-c3ccccc3)cnc2O[C@H]1CN(C)C(=O)Nc1ccccc1F | -54.8[16.7 µM] | 19.6
COCC(=O)Nc1ccc2c(c1)C(=O)N(C)[C@@H]1CC[C@H](CC(=O)O)O[C@H]1CO2 | 1.3[16.7 µM] | -10.5
COc1ccc(NC(=O)Nc2ccc3c(c2)C(=O)N([C@H](C)CO)C[C@H](C)[C@H](CN(C)S(=O)(=O)c2ccc(C)cc2)OCCCC[C@@H](C)O3)cc1 | 6.3[16.7 µM] | -15.4
C[C@@H]1CN([C@H](C)CO)C(=O)c2cc(NC(=O)C3CC3)ccc2O[C@H]1CN(C)Cc1ccc(Oc2ccccc2)cc1 | 21.5[16.7 µM] | 3.4
O=C(Cc1ccccn1)NCC[C@@H]1CC[C@@H](NC(=O)Nc2ccc(C(F)(F)F)cc2)[C@@H](CO)O1 | 0.9[16.7 µM] | -8.4
CCCNC(=O)C[C@@H]1CC[C@H]2[C@@H](COc3ccc(NS(=O)(=O)c4ccccc4C)cc3C(=O)N2C)O1 | -1.9[16.7 µM] | 7.5
Cc1noc(C)c1NC(=O)N(C)C[C@H]1Oc2ncc(C#CC(C)C)cc2C(=O)N([C@@H](C)CO)C[C@H]1C | 1.7[16.7 µM] | 14.2
Cc1ccc(S(=O)(=O)Nc2ccc3c(c2)C(=O)N([C@H](C)CO)C[C@@H](C)[C@@H](CN(C)C)OCCCC[C@H](C)O3)cc1 | -4.5[16.7 µM] | 32.0
Cc1noc(C)c1NC(=O)N(C)C[C@@H]1OCCCC[C@H](C)Oc2ccc(NC(=O)c3ccccc3)cc2C(=O)N([C@H](C)CO)C[C@H]1C | 51.7[16.7 µM] | 8.6
COc1ccc(NC(=O)Nc2ccc3c(c2)C(=O)N([C@H](C)CO)C[C@H](C)[C@H](CN(C)Cc2ccccc2)OCCCC[C@H](C)O3)cc1 | 73.9*[16.7 µM] | 23.6
C[C@@H]1CN([C@H](C)CO)C(=O)c2cc(NC(=O)Nc3ccccc3)ccc2O[C@@H](C)CCCCO[C@@H]1CN(C)Cc1ccccc1 | -38.2[16.7 µM] | 12.4
COc1ccc(NC(=O)N(C)C[C@@H]2OCCCC[C@@H](C)Oc3ccc(NC(=O)Nc4c(C)noc4C)cc3C(=O)N([C@@H](C)CO)C[C@H]2C)cc1 | 7.8[16.7 µM] | 3.6
C[C@H]1CN([C@@H](C)CO)S(=O)(=O)c2ccc(Br)cc2O[C@@H]1CN(C)C | 16.5[16.7 µM] | 2.4
C[C@@H]1CN([C@H](C)CO)C(=O)c2cc(Br)cnc2O[C@H]1CN(C)C(=O)Nc1ccc(F)cc1 | -11.5[16.7 µM] | -1.4
COc1ccc(CN(C)C[C@H]2Oc3c(NC(=O)Nc4ccc(OC)cc4)cccc3C(=O)N([C@H](C)CO)C[C@@H]2C)cc1 | -13.8[16.7 µM] | 4.5
CC1(C(=O)NS(=O)(=O)c2ccc(Cl)cc2)CCN1C(=O)CC1CCCC1 (stereo unspecified) | -18.2 | 7.9
COc1ccc(NC(=O)N(C)C[C@H]2OCCCC[C@@H](C)Oc3ccc(NS(=O)(=O)c4cccs4)cc3C(=O)N([C@@H](C)CO)C[C@H]2C)cc1 | 10.9[16.7 µM] | 12.3

Not a retest: entries from further up.
SMILES | HIV Env fusion | UUG fidelity
COc1ccc(NC(=O)Nc2ccc3c(c2)CC(=O)N([C@H](C)CO)C[C@@H](C)[C@H](CN(C)Cc2ccc(-c4ccccc4)cc2)O3)cc1 | 12.5[16.7 µM] | -4.9
CCCC#Cc1cnc2c(c1)C(=O)N([C@@H](C)CO)C[C@H](C)[C@@H](CN(C)Cc1ccncc1)O2 | 13.2[16.7 µM] | -5.4
Cc1ccc(S(=O)(=O)N[C@@H]2CC[C@@H](CCNC(=O)C3CCOCC3)O[C@H]2CO)cc1 | 10.0[16.7 µM] | -3.5
O=C(C[C@H]1CC[C@@H](NC(=O)Nc2cc(F)ccc2F)[C@H](CO)O1)NCc1ccccn1 | -3.8[16.7 µM] | -24.8

Later entries.
SMILES | HIV Env fusion | UUG fidelity
C[C@H]1CN([C@@H](C)CO)S(=O)(=O)c2ccc(/C=C/c3ccccc3)cc2O[C@@H]1CN(C)C(=O)c1ccccc1 | 19.1[16.7 µM] | -13.4
Cc1noc(C)c1S(=O)(=O)N(C)C[C@H]1Oc2ccc(NS(=O)(=O)c3ccccc3)cc2C(=O)N([C@@H](C)CO)C[C@H]1C | -6.6[16.7 µM] | 13.0
O=C(C[C@@H]1C[C@@H]2c3cc(NS(=O)(=O)c4ccccc4)ccc3O[C@@H]2[C@@H](CO)O1)NC1CCCCC1 | 30.5[16.7 µM] | 17.6
COc1cccc(-c2cnc3c(c2)C(=O)N([C@@H](C)CO)C[C@H](C)[C@@H](CN(C)Cc2cccnc2)O3)c1 | 4.9[16.7 µM] | -0.3
C[C@@H]1CN([C@@H](C)CO)C(=O)c2cccc(NC(=O)Nc3ccc(F)cc3)c2O[C@@H]1CN(C)S(C)(=O)=O | -19.9[16.7 µM] | 9.0
C[C@H](CO)N1C[C@H](C)[C@H](CN(C)C(=O)C2CC2)Oc2cc(C#Cc3ccccn3)ccc2S1(=O)=O | -29.4[16.7 µM] | 50.7
C[C@@H]1CN([C@@H](C)CO)C(=O)Cc2cc(NC(=O)C3CC3)ccc2O[C@H]1CN(C)S(=O)(=O)c1cn(C)cn1 | -32.7[16.7 µM] | -7.6
COc1cccc(S(=O)(=O)N(C)C[C@@H]2Oc3ncc(Br)cc3C(=O)N([C@H](C)CO)C[C@@H]2C)c1 | -7.9 | 14.1
COc1ccc(S(=O)(=O)Nc2ccc3c(c2)C(=O)N([C@@H](C)CO)C[C@H](C)[C@H](CN(C)C(=O)c2ccncc2)OCCCC[C@H](C)O3)cc1 | -8.4[16.7 µM] | 12.4
C[C@H](CO)N1C[C@H](C)[C@H](CN(C)Cc2ccncc2)Oc2c(NC(=O)NC3CCCCC3)cccc2C1=O | -7.6[16.7 µM] | 8.3
C[C@@H]1CN([C@H](C)CO)C(=O)Cc2cc(N(C)C)ccc2O[C@@H]1CN(C)C(=O)Nc1cccc2ccccc12 | -8.9[16.7 µM] | 2.9
COc1cccc(NC(=O)C[C@@H]2CC[C@@H]3[C@H](COc4ccc(NS(=O)(=O)c5cccc(F)c5)cc4C(=O)N3C)O2)c1 | 4.8[16.7 µM] | 6.5
C[C@@H]1CN([C@H](C)CO)C(=O)CCCn2cc(nn2)CO[C@H]1CN(C)Cc1ccccc1 | 11.2[16.7 µM] | 10.6
C[C@@H]1CN([C@H](C)CO)C(=O)Cc2cc(NS(C)(=O)=O)ccc2O[C@H]1CN(C)C(=O)Nc1ccc(C(F)(F)F)cc1 | 10.2[16.7 µM] | -32.0
CCCC(=O)Nc1ccc2c(c1)C(=O)N(C)[C@@H]1CC[C@@H](CC(=O)NCC(F)(F)F)O[C@@H]1CO2 | -9.0[16.7 µM] | -4.9
CO[C@H]1CN(C)C(=O)c2ccc(NC(=O)c3ccccc3)cc2OC[C@@H](C)N(CC2CC2)C[C@@H]1C | -8.5[16.7 µM] | 0.9
C[C@@H]1CN([C@H](C)CO)S(=O)(=O)c2ccc(C3=CCCCC3)cc2O[C@@H]1CN(C)Cc1ccccc1 | 30.4[16.7 µM] | 15.5
C[C@H](CO)N1C[C@H](C)[C@@H](CN(C)C(=O)NC2CCCCC2)OCCCC[C@H](C)Oc2ccc(NS(=O)(=O)c3ccc(F)cc3)cc2C1=O | -204.5[16.7 µM] | 9.2
C[C@H]1CN([C@@H](C)CO)C(=O)c2cccc(NC(=O)C3CCOCC3)c2O[C@H]1CN(C)C(=O)Nc1ccc2c(c1)OCO2 | 8.7[16.7 µM] | 6.3
CO[C@H]1CN(C)C(=O)c2cc(NS(=O)(=O)CC(F)(F)F)ccc2OC[C@H](C)N(CCC(F)(F)F)C[C@@H]1C | 18.8[16.7 µM] | -3.3
Cc1ccc(S(=O)(=O)Nc2ccc3c(c2)C(=O)N([C@H](C)CO)C[C@H](C)[C@@H](CN(C)CC2CCCCC2)O3)cc1 | 6.3[16.7 µM] | -1.6
C[C@@H]1CN([C@@H](C)CO)C(=O)c2cc(Br)cnc2O[C@@H]1CN(C)CC1CCOCC1 | -80.0[16.7 µM] | -8.2
C[C@@H]1CN([C@@H](C)CO)C(=O)c2cc(NS(=O)(=O)c3cccs3)ccc2O[C@@H](C)CCCCO[C@@H]1CN(C)C | -8.0[16.7 µM] | -1.7
C[C@@H]1CN([C@H](C)CO)C(=O)c2cc(-c3ccc(F)cc3)cnc2O[C@@H]1CN(C)C(=O)C1CCC1 | -19.9[16.7 µM] | -7.3
COc1ccc(NC(=O)N(C)C[C@@H]2OCCCC[C@H](C)Oc3ccc(NS(=O)(=O)c4cn(C)cn4)cc3C(=O)N([C@H](C)CO)C[C@H]2C)cc1 | 6.2[16.7 µM] | -9.1

More entries.
SMILES | HIV Env fusion | UUG fidelity
CCC(=O)N(C)C[C@@H]1Oc2ncc(C#Cc3ccc(OC)cc3)cc2C(=O)N([C@@H](C)CO)C[C@H]1C | 6.7[16.7 µM] | -8.9
Cc1ccc(S(=O)(=O)N(C)C[C@H]2OCCCC[C@H](C)Oc3ccc(NC(=O)Nc4ccc(F)cc4)cc3C(=O)N([C@@H](C)CO)C[C@H]2C)cc1 | -41.4[16.7 µM] | -2.7
C[C@@H]1CCCCO[C@@H](CN(C)C(=O)c2ccccc2)[C@@H](C)CN([C@@H](C)CO)C(=O)c2cc(NC(=O)Nc3ccccc3)ccc2O1 | -11.0[16.7 µM] | 6.7
CC(C)NC(=O)N(C)C[C@@H]1Oc2c(NS(=O)(=O)c3cccs3)cccc2C(=O)N([C@@H](C)CO)C[C@H]1C | 2.3[16.7 µM] | -2.1
COc1ccc(NC(=O)Nc2ccc3c(c2)C(=O)N([C@H](C)CO)C[C@H](C)[C@H](CN(C)S(=O)(=O)c2ccc(F)cc2)O3)cc1 | 69.3*[16.7 µM] | 0.2
C[C@@H]1CN([C@H](C)CO)C(=O)c2cc(-c3ccncc3)cnc2O[C@H]1CN(C)C(=O)c1ccncc1 | -13.1[16.7 µM] | -14.6
O=C(C[C@H]1CC[C@H]2[C@@H](COC[C@@H](O)CN2S(=O)(=O)c2ccc(F)cc2)O1)NCC1CCCCC1 | 33.8[16.7 µM] | -3.4
CN(C)C(=O)C[C@H]1CC[C@@H](NC(=O)NC2CCCCC2)[C@@H](CO)O1 | 3.7[16.7 µM] | -7.8
COc1ccc(S(=O)(=O)N(C)C[C@H]2Oc3ccc(NC(=O)Cn4cnnn4)cc3CC(=O)N([C@H](C)CO)C[C@H]2C)cc1 | -2.4[16.7 µM] | 6.4
C[C@@H]1CCCCO[C@H](CN(C)C(=O)Nc2cccc3ccccc23)[C@@H](C)CN([C@@H](C)CO)C(=O)c2cc(NC(=O)CCCN(C)C)ccc2O1 | -18.1[16.7 µM] | 5.5
C[C@@H]1CN([C@H](C)CO)C(=O)Cc2cc(NS(=O)(=O)c3cn(C)cn3)ccc2O[C@@H]1CN(C)CC1CC1 | 8.7[16.7 µM] | -4.7
C[C@H](CO)N1C[C@H](C)[C@H](CN(C)C(=O)Nc2ccc(F)cc2)OCCCC[C@H](C)Oc2ccc(NC(=O)CCC(F)(F)F)cc2C1=O | -3.7[16.7 µM] | 18.5
Cc1noc(C)c1NC(=O)Nc1ccc2c(c1)C(=O)N([C@@H](C)CO)C[C@H](C)[C@H](CN(C)CC1CCCCC1)O2 | -24.8[16.7 µM] | 3.4
Cc1noc(C)c1NC(=O)Nc1ccc2c(c1)C(=O)N([C@@H](C)CO)C[C@H](C)[C@H](CN(C)C)OCCCC[C@@H](C)O2 | 9.6[16.7 µM] | 9.9
C[C@H](CO)N1C[C@H](C)[C@H](CN(C)C(=O)Nc2cccc3ccccc23)Oc2ccc(NC(=O)Nc3ccc(C(F)(F)F)cc3)cc2CC1=O | -17.3[16.7 µM] | -12.5
COc1ccc(NC(=O)Nc2ccc3c(c2)C(=O)N([C@@H](C)CO)C[C@H](C)[C@H](CN(C)Cc2ccccc2)OCCCC[C@@H](C)O3)cc1 | -28.3[16.7 µM] | 14.8

Some of the entries above, reformatted.
canonical_smiles	HIV Env fusion	UUG fidelity
O=C(Cc1ccccn1)NCC[C@@H]1CC[C@@H](NC(=O)Nc2ccc(C(F)(F)F)cc2)[C@@H](CO)O1	0.9[16.7 µM]	-8.4
CCCNC(=O)C[C@@H]1CC[C@H]2[C@@H](COc3ccc(NS(=O)(=O)c4ccccc4C)cc3C(=O)N2C)O1	-1.9[16.7 µM]	7.5

Assay outcomes deposited in PubChem BioAssay by Broad Institute.

This is a subset, so the mix of outcomes need not match the whole.
